High-throughput results: PubChem BioAssay, several laboratories
UUG fidelity – modulators of yeast start codon fidelity, primary screen, whole organism, S. cerevisiae, single point, plate reader; S. cerevisiae UUG-firefly luciferase reporter, luminescence/redox ratio; activity score, % at 18.7 µM; actives 0.13% (n = 350,000);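 active = replicate mean at a twofold rise or more, about +100% in these data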;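 note: firefly luciferase made from a UUG start codon reports start codon fidelity; reporter light over untreated wells divided by growth signal over untreated wells; some hits fall short of that in this replicate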
MT1-MMP act inh – blockers of MT1-MMP proenzyme processing, primary screen, HT1080 RFP-PRO-GFP cells, GFP/RFP fluorescence | Matrix metalloproteinase-14 (Homo sapiens), P50281 | actives 0.061% (n = 360,000) | GFP/RFP ratio fluorescence, overnight; percent of plate control window, DMSO zero | GFP/RFP ratio change, % at 20 µM;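 active = GFP/RFP ratio change of at least 30% with cell ATP level not reduced by more than half and red fluorescence within 50% of control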; note: strong numbers were not always called active
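Assay system: HT1080 cells carrying an RFP-PRO-GFP reporter | Dosing: Single dose of 20 µM compound, 1% DMSO final | Incubation: Cells overnight before dosing, compound overnight, 37 °C, 5% CO2 | Evaluation: GFP/RFP fluorescence ratio | Control set: DMSO and RFP-L50D-GFP cell wells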
CSC inhib – cancer stem cell viability inhibitors, primary screen, luminescence; cancer stem cell-like cells viability; inhibition, % at 7.5 µM; actives 1.1% (n = 300,000); AID 2717, 2010;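 active = mean at 75% or more and at least half the replicates too; inconclusive = mean and replicates disagree; tested in HMLE shEcad cells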;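 note: 0% = median of negative and 100% = median of positive control wells; the first replicate is given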
PABP polyA inh – PABP poly(A) RNA binding inhibitors, primary screen, biochemical, fluorescence polarization, uHTS; Polyadenylate-binding protein 1 (Homo sapiens), P11940; inhibition, % at 35 µM; actives 1% (n = 290,000);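 active = 50% or more with normal probe brightness, or confirmed in later tests; inconclusive = above 50% with abnormal brightness, or retests that disagree; inactive = below 50% or failed in later tests; about a fifth of its hits are not listed in these tables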;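 note: calls also rest on retests at 20 µM and on dose response follow-up; controls were probe without protein and protein plus probe with vehicle; some compounds called inactive have numbers as strong as hits; many hits fall short of the cut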
Target sequence (P11940 whole entry, looked up): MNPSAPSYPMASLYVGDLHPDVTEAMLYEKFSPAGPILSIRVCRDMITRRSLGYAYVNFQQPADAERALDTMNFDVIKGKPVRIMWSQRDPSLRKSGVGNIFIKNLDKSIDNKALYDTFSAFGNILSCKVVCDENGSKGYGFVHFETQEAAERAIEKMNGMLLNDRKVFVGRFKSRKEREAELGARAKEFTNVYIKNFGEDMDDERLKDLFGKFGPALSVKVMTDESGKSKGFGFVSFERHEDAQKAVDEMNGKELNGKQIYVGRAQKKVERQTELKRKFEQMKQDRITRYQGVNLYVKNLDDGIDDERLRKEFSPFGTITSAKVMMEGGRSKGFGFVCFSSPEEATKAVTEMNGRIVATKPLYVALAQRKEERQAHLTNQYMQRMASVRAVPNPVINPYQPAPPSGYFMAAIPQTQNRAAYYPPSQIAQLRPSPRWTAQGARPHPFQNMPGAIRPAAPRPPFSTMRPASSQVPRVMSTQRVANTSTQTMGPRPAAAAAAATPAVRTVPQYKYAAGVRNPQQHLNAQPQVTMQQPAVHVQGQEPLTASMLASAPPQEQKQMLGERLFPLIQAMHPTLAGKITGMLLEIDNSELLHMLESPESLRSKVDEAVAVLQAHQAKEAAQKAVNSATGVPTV
Rce1 inhib – yeast Rce1p protease inhibitors, primary screen, biochemical, fluorescence, cell-free homogeneous; actives 0.27% (n = 290,000); calls only; AID 2563, 2010; yeast membranes, quenched prenylated peptide cleavage fluorescence;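 active = fall in fluorescence gain of 50% or more versus controls, with final raw signal at or below 3038400; inconclusive = same 50% fall but final raw signal above 3038400; inactive = fall in fluorescence gain under 50%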;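 note: plate controls were neutral control wells for no effect and wells lacking membranes for full effect; tested at 10 µM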
eIF4H FP inh – human eIF4H binding inhibitors, primary screen, translation initiation inhibitor project, biochemical, uHTS, fluorescence polarization; Eukaryotic translation initiation factor 4H (Homo sapiens), Q15056; eIF4H fluorescence polarization binding assay; inhibition, % at 35 µM; actives 0.94% (n = 290,000);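 active = 50% or more with normal probe brightness, or confirmed in later tests; inconclusive = above 50% with abnormal brightness, or retests that disagree; inactive = below 50% or failed in later tests; about a fifth of its hits are not listed in these tables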;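 note: calls also rest on retests at 20 µM and on dose response follow-up; 0% = protein and probe with vehicle and 100% = probe without protein; strong numbers were not always called active; many hits fall short of the cut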
Env fusion inh – inhibitors of HIV-1 Env-driven cell-cell fusion, primary screen, HeLa-JRFL effector, CEM21 target cells, luciferase; inhibition, % at 12.3 µM; actives 1.1% (n = 360,000); AID 651610, 2012;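 active = mean replicate inhibition score of at least 50 and every replicate individually at or above 50; inconclusive = only one of the two criteria met; inactive = mean below 50 and not all replicates reaching 50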;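 note: 0% = plate neutral controls and 100% = maraviroc near 300 nM; one replicate is shown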
eIF4H FP inh retest – further read-out of eIF4H FP inh, marked with its call; inhibition, %; compound at 20 µM; confirmation average;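 mean of two retest wells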
PABP polyA inh retest – recorded beside PABP polyA inh, whose call it bears; inhibition, %; compound at 20 µM; confirmation repeats;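 mean of two retest wells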
MT1-MMP act inh RFP – also measured in MT1-MMP act inh; calls as there; RFP signal change, %; measured here: RFP expression control read;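 0 = vehicle wells; hits needed this value within 50% of zero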
* hit, by the source's call; i = inactive; ? = inconclusive; nt = no result given; & = joins results of further samples; [ ] = remark or other dose. Some of the compounds tested, so the mix of outcomes need not match the whole.

SMILES | UUG fidelity | MT1-MMP act inh | MT1-MMP act inh RFP | CSC inhib | PABP polyA inh | Rce1 inhib | eIF4H FP inh | Env fusion inh | others
C#CCOCCOCCOCCNc1nc(N2CCN(C(=O)Cn3cc(CCO)nn3)CC2)nc(N2CCN(C(=O)[C@H](CCCCN)n3cc(CC(C)O)nn3)CC2)n1 (some centres not stated) | 18 | 2 | 3 | nt | nt | nt | nt | -12
CCOC(=O)c1cnc(-c2ccccc2)nc1Oc1ccccc1 | -11 | -5 | -5 | -7 | 6 | i | 1 | nt
CC1=CC(C)C(/C=N/N=C(N)N)C(C)C1 (configuration not stated) | -9 | 3 | 1 | 0 | -3 | i | 0 | 1
CSc1ccccc1C(=O)NC1CCCc2ccccc21 (configuration not stated) | -11 | 0 | 0 | 4 | 13 | i | 2 | 20
COc1ccccc1Nc1nc(N)nc(CN2CCN(c3ccccc3)CC2)n1 | -19 | 4 | 3 | -8 | 8 | i | 3 | 3
Cc1ccc(-n2nc3c(SCCN4CCOCC4)nnc(C)c3c2C)cc1 | nt | 1 | 0 | 2 | 4 | i | 3 | 18
COc1ccc(/C=C/C(=O)NC2=NCCS2)cc1OC | nt | -1 | -2 | -12 | 6 | i | -1 | 4
CC1CCN(S(=O)(=O)c2ccc(NC(=O)c3ccncc3)cc2)CC1 | -23 | -5 | -23 | -1 | -8 | i | -17 | 28
Cc1ccc(-c2cc(C(=O)Nc3ccc4c(c3)OCCO4)c3ccccc3n2)cc1 | -7 | -5 | -6 | -17 | -1 | i | -4 | nt
CCCn1nnnc1SCC(=O)Nc1sc(C)c(C)c1C#N | nt | nt | nt | -11 | -4 | i | 7 | nt
CC1(C(=O)Nc2ccc3c(c2)OCCO3)CCN1C(=O)c1cccc(F)c1 (configuration not stated) | -5 | -3 | 0 | nt | nt | nt | nt | 0
CC(=O)OCCNc1nc(-c2ccccc2)nc2ccccc12 | nt | 0 | 0 | 5 | 5 | i | 6 | -8
Cn1cc(CN2CCc3sccc3C2)c(-c2ccccc2F)n1 | nt | -2 | -4 | -1 | 11 | i | 24 | 15
CCOC(=O)CSc1nc(C)c(C(=O)OCC)s1 | 9 | 15 | 0 | -4 | 2 | i | -1 | nt
C=Cc1ccc(Cn2c(C)c(C(=O)NCc3ccc(Cl)c(Cl)c3)sc2=O)cc1 | -6 | 0 | -4 | nt | nt | nt | nt | -19
CCC1C(C#N)=C(N)OC2=C1C(=O)CC(C)(C)C2 (configuration not stated) | -21 | -3 | -2 | -2 | -11 | i | 0 | -9
CCOC(=O)c1cn2nc(-c3ccc(OC)cc3)cc2nc1C1CCN(C(=O)OC(C)(C)C)CC1 | -3 | -3 | -2 | 35 | -12 | i | -6 | ?
O=C(O)c1cccc(NC(=O)c2ccc3c(c2)C(=O)N(c2cccc([N+](=O)[O-])c2)C3=O)c1 | -9 | 2 | 4 | -11 | 2 | i | -6 | 3
COc1cc(OC)c(OC)cc1CN1CCN(C(=O)c2cccc3ccccc23)CC1 | -9 | 4 | -3 | -17 | 0 | i | 18 | -82
CCCCC#Cc1ccc(C(=O)NNC(=O)Nc2cc(Cl)cc(Cl)c2)o1 | nt | -1 | 0 | 25 | 1 | i | 0 | 8
Cc1ccc(C(=O)Nc2ccc(C)c(S(=O)(=O)Nc3ccccc3Cl)c2)s1 | -7 | 0 | -29 | 5 | 21 | i | -3 | nt
CC(=O)Nc1ccc(C(=O)OCC(=O)NC(=O)NC2CCCCC2)cc1 | -1 | -1 | 1 | -4 | 10 | i | -8 | -121
COC(=O)C1CCN(c2nc3ccccc3nc2C(C#N)C(=O)NCCc2ccccc2)CC1 (configuration not stated) | nt | -3 | 2 | nt | 22 | i | 5 | nt
CCC(C)(C(=O)NC1CCCCC1)N(C(=O)CNC(C)=O)c1c(C)n(C)n(-c2ccccc2)c1=O (configuration not stated) | -7 | 3 | 7 | nt | 2 | i | -11 | 0
C[C@@H]1CN([C@H](C)CO)C(=O)CCCn2cc(nn2)CO[C@H]1CN(C)S(=O)(=O)c1ccc(F)cc1 | -15&-1&1 | 5 | 5 | nt | nt | nt | nt | -6[16.7 µM]

Further records follow:
SMILES | UUG fidelity | MT1-MMP act inh | MT1-MMP act inh RFP | CSC inhib | PABP polyA inh | Rce1 inhib | eIF4H FP inh | Env fusion inh | others
COCCNc1nc(NCc2cnc(C)cn2)c2sccc2n1 | -13 | 5 | 8 | nt | nt | nt | nt | 25
CN(C)CCn1c2c(c(SCC(=O)Nc3cccc4ccccc34)nc1=O)CCCC2 | nt | 1 | -1 | -1 | nt | i | nt | 6
CCCn1c(SCC(=O)Nc2ccccc2-c2ccccc2)nnc1-c1ccoc1C | -3 | -5 | -5 | -4 | -4 | i | -3 | 40
CCOc1ccc(NC(=O)C(C)Oc2ccccc2C(=O)Nc2cccc(Cl)c2Cl)cc1 (configuration not stated) | -14 | -2 | -6 | 10 | 2 | i | 0 | -54
COCCN(Cc1ccc(F)cc1)C(=O)c1cc2ccccc2oc1=O | 15 | 0 | 0 | -3 | 3 | i | 2 | 5
CC1(C(=O)NS(=O)(=O)c2cccc(C#N)c2)CCN1C(=O)c1ccccc1CCc1ccccc1 (configuration not stated) | 7 | 0 | 3 | nt | nt | nt | nt | 3
Cc1cccc(N2C(=O)CSC2c2cccnc2)c1 (configuration not stated) | -18 | -1 | 1 | -6 | -9 | i | 3 | -51
Fc1ccc(-c2cc(C(F)(F)F)nc(N3CCCCC3)n2)cc1 | -15 | -1 | 2 | 21 | 1 | nt | -3 | 1
C=CCNC(=S)N1CCN(S(=O)(=O)c2ccc(C)cc2)CC1 | -13 | 3 | 1 | 27 | 8 | i | -7 | -4
Cc1ccccc1NC(=O)CCCC(=O)c1ccccc1 | -19 | 8 | 3 | -5 | -6 | i | -15 | 3
CCc1ccc(N(C(=O)c2ccco2)C(C(=O)NC2CCCC2)c2ccncc2)cc1 (configuration not stated) | -6 | -4 | 1 | -5 | 3 | i | -9 | 10
COc1ccc(Cc2c(-c3ccc(C)cc3)nc3c4ccccc4ccn23)c(C)c1 | -5 | -4 | -2 | nt | nt | nt | nt | 1
COC(=O)[C@@]1(Cc2ccccc2)[C@H]2C(=O)N(C)C(=O)[C@H]2[C@H]2CN=C(SCC(=O)c3ccccc3)N21 | -17 | 2 | 0 | nt | nt | nt | nt | 24
O=C(NCc1ccccn1)c1ccc(Cn2c(=S)[nH]c3ccc(Br)cc3c2=O)cc1 | nt | -4 | -7 | 3 | -5 | i | -1 | -2
CN1CCN(Cc2nc3ccccc3c(=O)n2CC#N)CC1 | -16 | -4 | 1 | -4 | -7 | i | -1 | -13
S=C1NC2(CCCC2)N=C1c1ccccc1 | nt | 3 | 3 | -18 | -6 | i | -5 | 0
Nc1c(-c2cccs2)cnn1-c1nc(-c2ccc(Cl)cc2Cl)cs1 | -25 | -3 | 3 | 18 | -9 | i | 4 | -59
O=C(CSc1nnnn1Cc1ccccc1)Nc1ccc2c(c1)OCO2 | -6 | 3 | -8 | 17 | 10 | i | -11 | -27
CCOC(=O)c1c(C)nc2ccc(C)cn12 | -8 | -7 | 1 | nt | 4 | i | -3 | nt
CCOn1c(=O)c(-c2ccc(C)cc2)[n+]([O-])c2ccccc21 | -12 | -2 | 0 | nt | -1 | i | -1 | -1
CCOC(=O)c1sc(N=NC2=C(O)CCCC2=O)c(C(=O)OCC)c1C | -3 | 8 | -2 | 3 | 29 | i | 92 | -6 | eIF4H FP inh retest=7;PABP polyA inh retest=1
CCCC(=O)NC1=C(C#N)C2(CCCC2)Cc2ccccc21 | -3 | -5 | 0 | -3 | 9 | i | 2 | 9
O=C(Nc1cccc(F)c1)C1CCN(C(=O)c2ccc(Cl)cc2)CC1 | -1 | 3 | 1 | -3 | 3 | i | -3 | 13
CCCn1cc(NC(=O)C2CC(c3cccc(Br)c3)=NO2)cn1 (configuration not stated) | -19 | -1 | -4 | -23 | 8 | i | -4 | nt
CCCCNC(=S)N(CCCO)Cc1cc2cc3c(cc2[nH]c1=O)OCO3 | -10 | 0 | 6 | nt | nt | nt | nt | -32

Additional compounds:
SMILES | UUG fidelity | MT1-MMP act inh | MT1-MMP act inh RFP | CSC inhib | PABP polyA inh | Rce1 inhib | eIF4H FP inh | Env fusion inh | others
COc1ccc(OC)c(/C=C2\SC(=S)N(C(C(=O)O)c3ccccc3)C2=O)c1 (configuration not stated) | -14 | -10 | 4 | 4 | 10 | i | -14 | -7
CN(C)CCN(C(=O)c1ccc(S(=O)(=O)N2CCCC2)cc1)c1nc2ccc(Br)cc2s1 | -20 | 2 | 7 | -18 | 1 | i | 3 | 13
CCOC(=O)C1(Cc2cccc(OC)c2)CCN(C/C=C/c2ccc(OC)cc2)CC1 | 17 | -4 | -12 | 29 | -13 | i | -10 | 1
Cc1oc(-c2ccc(Cl)cc2)cc1-c1nn2c(-c3ccoc3C)nnc2s1 | -7 | 5 | 10 | nt | 59* | i | 85* | -39
CC(=O)N1CC=CC1(C)C(=O)NCc1cc(F)cc(C(F)(F)F)c1 (configuration not stated) | -12 | 2 | 2 | -8 | 8 | i | 5 | -8
Cc1ccc(SCC(=O)NCCN2C(=O)CSC2=O)cc1C | -33 | -6 | 1 | -9 | 3 | i | -7 | -10
O=c1c(Cc2ccc(F)cc2)c(O)ccn1C1CC1 | -10 | -1 | 4 | -12 | 5 | i | 2 | nt
CCC(CO)Oc1cc(NCc2ccc(Cl)cc2)c2ncn(C(C)C)c2c1 (configuration not stated) | -3 | -3 | 8 | nt | nt | nt | nt | 0
CCCCCn1c(N2CCC(Cc3ccccc3)CC2)nc2c1c(=O)[nH]c(=O)n2C | -9 | -8 | -18 | 118* | nt | i | nt | nt
CCN(CC)C(C(=O)Nc1ccc2c(c1)OCO2)c1ccccc1 (configuration not stated) | nt | 5 | 4 | 2 | 10 | i | 11 | nt
CC(=O)Nc1cc2c(cc1NC(=O)Cn1nc(-c3ccc4c(c3)OCCO4)ccc1=O)OCCO2 | -8 | 0 | -4 | 3 | -2 | i | -12 | nt
CCOc1ccc(C(=O)N[C@H](C(=O)Nc2ccc(S(=O)(=O)Nc3nccs3)cc2)C(C)C)cc1 | nt | -1 | 2 | -1 | nt | nt | nt | -1
COC(=O)CCCC1=CC2=CC(=O)C(C)(OC(=O)C3CCCC3)C(=O)C2=CO1 (configuration not stated) | nt | nt | nt | 2 | ? | i | ? | nt
CC(O)(c1cccnc1)c1nc(-c2cccc(C(F)(F)F)c2)cs1 (configuration not stated) | -12 | -2 | -12 | nt | nt | nt | nt | 17
Cc1c(C(=O)NCc2ccc3c(c2)OCO3)sc2nc(-c3ccc(F)cc3)cn12 | -7 | 2 | -1 | -2 | 0 | i | 7 | 11
CC(Oc1ccc(Cl)cc1)C(=O)NCCN1C(=O)S/C(=C\c2cccnc2)C1=O (configuration not stated) | nt | -3 | -8 | -11 | 7 | i | 2 | nt
